Screens as filed in PubChem BioAssay.
miR-21 FLuc – miR-21 reporter, rising signal | HeLa miR-21 FLuc reporter, luciferase, 48 h | AID 2288 | Potency, µM (highest dose often 38.3 µM), for inactives: at the top dose reporter change, positive = more light | 340,000 tested, under 10 active; active = well fitted rising curve with a large enough effect; inconclusive = small, poorly fitted or top-dose-only effect; inactive = no such curve, though single readings can be large or run the other way;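 note: % of control where 0% means no effect; miR-21 action dims this reporter so a rising signal means less miR-21 action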
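HeLa miR-21-FLuc reporter line, endogenous miR-21; 2000 cells/well in DMEM/10% FBS; compound titration up to ~40uM final, 48 h, 37 degree Celsius; luciferase detection reagent, 15 min lysis, CCD luminescence.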
An asterisk follows results filed as active; ? = inconclusive. These rows are one share of the data. The share of hits here may be higher or lower than overall.

Preview, 2 compounds:
SMILES	miR-21 FLuc
O=C(CSc1cn(CC(=O)N2CCOCC2)c2ccccc12)Nc1ccccc1	-6.5%
O=c1c2sc3ccccc3c2n(Cc2cccc(F)c2)c(=O)n1CCc1ccccc1	-35.8%

The whole of this part, from the first entry:
SMILES	miR-21 FLuc
O=C(CSc1cn(CC(=O)N2CCOCC2)c2ccccc12)Nc1ccccc1	-6.5%
O=c1c2sc3ccccc3c2n(Cc2cccc(F)c2)c(=O)n1CCc1ccccc1	-35.8%
COc1ccc(C2C=C(c3ccccc3)Nc3nc(NC(=O)/C=C/c4ccccc4OC)nn32)cc1 (stereo not drawn)	1.3%
CCc1nnc(NC(=O)CSc2nc3c([nH]c4ccccc43)c(=O)n2-c2ccc(Cl)cc2)s1	-4.0%
COc1ccc(-c2nc(Cn3c(SCc4ccc(F)cc4)nc4cccnc43)c(C)o2)cc1	0.3%
O=C(Nc1ccc2nc(SCCOc3ccccc3Cl)sc2c1)c1cccs1	13.4%
CCOc1ccc(C(CC(=O)O)N2Cc3ccccc3C2=O)cc1OC (stereo not drawn)	-0.8%
Cc1cccc(N(C)c2nc3ccc(C(=O)c4ccccc4)cc3n3c(C)nnc23)c1	3.9%
CCN(CC)c1ccc(NC(=O)CN2C(=O)c3cccnc3Sc3ccccc32)c(C)c1	-38.0%
COC(=O)c1ccc(NC(=O)n2ncc3c(C)cccc32)cc1	0.2%
Cc1ccc(-c2cn3ccc(C)cc3n2)cc1	?
O=C(NCCc1ccc(Cl)cc1)c1ccc2c(c1)N(Cc1ccc(F)cc1Cl)C(=O)CS2	15.1%
CCc1ccccc1NC(=O)CCC(=O)N1CC(C)Oc2ccc(C)cc21 (stereo not drawn)	-11.7%
Cn1cc(S(=O)(=O)N2CCCCCC2)cc1C(=O)Nc1ccc(Cl)c(C(F)(F)F)c1	-2.0%
Cc1cccc(C(=O)NCC(c2ccc3c(c2)OCO3)N2CCOCC2)c1 (stereo not drawn)	-5.3%
CCCN1CCN(C(=O)Cn2ncc3c4ccccc4n(Cc4cccc(Cl)c4)c3c2=O)CC1	-0.4%
CC(C(=O)Nc1ccccc1F)N1CCN(C)CC1 (stereo not drawn)	-0.8%
Cc1cccc(C)c1Nc1c(-c2ccccn2)nc2ccc(Cl)cn12	-3.0%
CCCC(C(=O)NCc1cccc(Cl)c1)N1Cc2ccccc2C1=O (stereo not drawn)	4.3%
Cc1cccc(-n2c(-c3ccco3)nc3c(cnn3-c3ccccc3C)c2=O)c1	10.8%
CCc1ccc(-c2nn(CC(=O)NC3CCCC3)c3c2cnc2ccc(F)cc23)cc1	-34.3%
COc1ccc(-n2c(SCC(=O)NCc3ccc(Cl)cc3)nc3ccsc3c2=O)cc1	1.0%
COc1ccc(N2C(=O)CSC23C(=O)N(C)c2ccccc23)cc1Cl (stereo not drawn)	-1.6%
Cc1cccc(N2CCN(C(=O)Nc3ccc(F)cc3)CC2C)c1 (stereo not drawn)	-0.4%
COc1cc(NC(=O)NC(C)c2c(-n3cccc3)sc3c2CCN(C)C3)cc(OC)c1 (stereo not drawn)	-0.9%
Carrying on.
SMILES	miR-21 FLuc
CCN(Cc1ccccc1)C(=O)Cn1c(=O)n(-c2cccc(C)c2)c(=O)c2c1c1cc(C)ccc1n2C	-0.4%
Cc1nc(-c2ccc(C)c(S(=O)(=O)N3CCC(C(=O)NCc4ccc(Cl)cc4)CC3)c2)no1	12.5%
COc1ccc(Nc2ncc3c(n2)CCN(Cc2sccc2C)C3)c(OC)c1	0.6%
Cc1cc2c(cc1S(=O)(=O)Nc1cccc(C(F)(F)F)c1)OCCN2C	1.0%
Cc1cc(C)c2c(n1)SCC(=O)N2CC(=O)Nc1ccccc1C	4.1%
O=C(CCCn1c(=O)[nH]c2ccsc2c1=O)N1CCN(c2ccc(Cl)cc2)CC1	?
CCOC(=O)COc1cc(C)c(Cl)cc1C(=O)c1ccn2nc(-c3ccc(OC)cc3)cc2n1	-0.1%
O=C(NCC(c1cccs1)S(=O)(=O)c1cccs1)c1ccccc1 (stereo not drawn)	-0.7%
CCOCCCNC(=O)c1cnc2sc(N3CCCCCC3)nn2c1=O	-5.8%
Cc1c(C(=O)N(Cc2ccccc2F)C2CCS(=O)(=O)C2)oc2ccc(F)cc12 (stereo not drawn)	-5.6%
Cc1ccc(Cc2c(C)nc3nc(SCC(=O)NC4CCC(C)CC4)nn3c2C)cc1 (stereo not drawn)	-5.7%
CCOc1ccccc1-c1noc(CSc2nnc(-c3ccccc3)n2-c2ccc(F)cc2)n1	?
CN(C)CCN(Cc1ccco1)C(=O)c1oc2ccccc2c1NC(=O)c1ccccc1	-17.3%
Cc1ccccc1CNCCSc1nnnn1-c1ccccc1	-7.1%
Cc1cc(S(=O)(=O)C(CNC(=O)c2ccc(F)c(F)c2)c2cccs2)ccc1F (stereo not drawn)	5.4%
O=S(=O)(c1ccccc1)c1nnn2c1nc(NC1CCCCCC1)c1sccc12	-10.2%
CN(C)S(=O)(=O)c1ccc(C(=O)NCCSc2c(-c3ccc(Cl)cc3)[nH]c3ccccc23)cc1	?
Cc1cccc(N2CCN(S(=O)(=O)c3ccc(F)c(C(=O)Nc4ccc(C(C)C)cc4)c3)CC2)c1C	0.9%
COc1ccc(C)cc1NC(=O)NCCn1nnc2cc(S(=O)(=O)N(C)C)ccc21	2.9%
COc1ccc(-n2nc3c(N4CCC(C(=O)NCCc5ccccc5)CC4)nnc(C)c3c2C)cc1	3.4%
Cc1ccc(NC(=O)c2cn(-c3ccccc3)nc2-c2ccccc2)cc1	-1.5%
CC(=O)c1ccc(NC2=NS(=O)(=O)c3ccccc32)cc1	-11.3%
CCc1ccccc1NC(=O)C(=O)NCCc1sc(-c2cccc(C)c2)nc1C	-11.0%
CCOc1ccc(-n2c(=O)c3c4c(sc3n(Cc3cccc(Cl)c3)c2=O)CCCC4)cc1	-2.9%
COc1ccc(C(=O)Oc2ccc(C(c3c(C)[nH][nH]c3=O)c3c(C)[nH][nH]c3=O)cc2OC)cc1	-5.5%

Exported comma-delimited: part of the list above
SMILES,miR-21 FLuc
Cc1cc2c(cc1S(=O)(=O)Nc1cccc(C(F)(F)F)c1)OCCN2C,1.0%
CCc1nnc(NC(=O)CSc2nc3c([nH]c4ccccc43)c(=O)n2-c2ccc(Cl)cc2)s1,-4.0%
O=C(Nc1ccc2nc(SCCOc3ccccc3Cl)sc2c1)c1cccs1,13.4%
CCOCCCNC(=O)c1cnc2sc(N3CCCCCC3)nn2c1=O,-5.8%

The list goes on:
SMILES	miR-21 FLuc
COc1ccc(C2=NN(CC(=O)NCCc3ccccc3)C(=O)CC2)cc1	-5.6%
CCc1ccc2oc(-c3ccc(NC(=O)c4ccc(OC)c(Br)c4)cc3)nc2c1	-49.0%
COc1ccc(C)cc1NC(=O)c1ccc(=O)n(Cc2ccccc2)c1	-9.1%
CN1C(=O)C2(SCC(=O)N2c2ccc(F)cc2)c2ccccc21 (stereo not drawn)	-4.8%
Oc1cccc(-c2nc3ncccn3c2Nc2cccc(C(F)(F)F)c2)c1	6.5%
CCCCNC(=O)C1CCN(C(=O)N2CC(C)Oc3ccc(Cl)cc32)CC1 (stereo not drawn)	7.1%
COc1ccc(CNC(=O)CSc2ncc3c(n2)-c2cc(Cl)ccc2N(Cc2ccccc2)S3(=O)=O)cc1	-0.7%
COc1ccccc1Cn1cc(C(=O)c2ccccc2)c(=O)c2cc(OC)c(OC)cc21	-6.2%
CCOC(=O)c1cccc(NC(=O)CN2C(=O)CC(C)(C)Sc3ccccc32)c1	9.5%
CC(=O)c1ccc(NS(=O)(=O)c2ccc(Br)s2)cc1	-32.3%
Cc1cccc(Cn2nnc(C(=O)Nc3cc(C)ccc3C)c2N)c1	17.7%
c1ccc(C(c2cccs2)c2c[nH]c3ccccc23)cc1 (stereo not drawn)	10.2%
COc1ccc(NC(=O)CCS(=O)(=O)c2nc(-c3cccs3)cc(C(F)(F)F)n2)cc1	?
Cc1ccc(NC(=O)Cn2c(=O)n(-c3ccc(CC(=O)NCC4CCCO4)cc3)c(=O)c3ccccc32)cc1 (stereo not drawn)	-0.1%
CCC(Sc1nc2nccnc2c(=O)n1Cc1ccc(OC)cc1)C(=O)NC1CCCCC1 (stereo not drawn)	-3.8%
COc1cccc(-c2nc(CS(=O)(=O)CC(=O)NCc3ccc(C)cc3)c(C)o2)c1	2.3%
CCc1nc2ccc(C(=O)NCc3cccc(Br)c3)cc2nc1CC	0.6%
Cc1ccc(N2CCN(c3nc4ccccc4n4nnnc34)CC2)c(C)c1	-3.4%
COc1ccccc1NC(=O)c1sc2nc(-c3cc4ccccc4oc3=O)[nH]c(=O)c2c1C	-2.7%
COc1ccc(S(=O)(=O)NCCc2sc(C)nc2C)cc1F	8.1%
O=C(CSc1nnc(-c2ccc(Cl)cc2)o1)c1ccc([N+](=O)[O-])cc1	4.7%
COc1ccc(OC)c(S(=O)(=O)NCCc2sc(-c3ccc(C)cc3)nc2C)c1	1.3%
O=C(NCc1ccccc1Cl)c1c2c(nc3ccccc13)C(=O)N(C1CCCCC1)C2	-1.9%
CCN(C(=O)c1cc2c(=O)oc3ccc(C)cc3c2s1)c1ccccc1C	-14.3%
CCCC(CCC)C(=O)Nc1cccc(-c2cn3cccnc3n2)c1	-4.8%

6 records picked at random from those above, as already listed:
SMILES	miR-21 FLuc
O=C(NCc1ccccc1Cl)c1c2c(nc3ccccc13)C(=O)N(C1CCCCC1)C2	-1.9%
CN1C(=O)C2(SCC(=O)N2c2ccc(F)cc2)c2ccccc21 (stereo not drawn)	-4.8%
COc1ccc(S(=O)(=O)NCCc2sc(C)nc2C)cc1F	8.1%
CCN(C(=O)c1cc2c(=O)oc3ccc(C)cc3c2s1)c1ccccc1C	-14.3%
CCOC(=O)c1cccc(NC(=O)CN2C(=O)CC(C)(C)Sc3ccccc32)c1	9.5%
O=C(CSc1nnc(-c2ccc(Cl)cc2)o1)c1ccc([N+](=O)[O-])cc1	4.7%

Next entries follow:
SMILES	miR-21 FLuc
CC(C)c1ccc(Nc2c(-c3ccccc3O)nc3cnccn23)cc1	?
COc1ccc(CCNC(=O)c2cnn(-c3cccc(C)c3)c2C2CCNCC2)cc1OC	-3.9%
Cc1oc2cc3oc(=O)c(CC(=O)NCc4ccccc4)c(C)c3cc2c1C	-0.6%
CCN(CCCNC(=O)c1cc2c(=O)[nH]c3ccccc3c2s1)c1ccccc1	-0.1%
Cc1nn(-c2ccccc2)c(-n2cccc2)c1C(=O)N1CCN(c2ccccc2)CC1	14.8%
CCOc1ccccc1NS(=O)(=O)c1ccc2c(c1)CC(C)N2C(=O)C1CC1 (stereo not drawn)	3.7%
Cc1cccc2c1-c1sc(C(=O)NCc3ccccc3Cl)cc1CO2	-12.8%
Cc1cc(Cl)ccc1NC(=O)CSc1nc2c(c(=O)[nH]1)CCC2	-3.8%
Cc1ccnc(NC(c2ccccc2F)c2ccc3cccnc3c2O)c1 (stereo not drawn)	18.9%
CCc1ccccc1NC(=O)c1ccc(F)c(S(=O)(=O)N2CCN(c3cccc(Cl)c3)CC2)c1	-0.4%
CCc1cccc(C)c1Nc1c(-c2cccs2)nc2nc(C)cc(C)n12	0.9%
Cc1nc2c(C(=O)N(C)Cc3ccccc3)c[nH]n2c(=O)c1Cc1ccc(Cl)cc1	-0.2%
COc1ccccc1OCCCSc1nc(-c2ccc(C(C)(C)C)cc2)nc2cc(=O)[nH]n12	-12.2%
CCCCOC(=O)/C(C#N)=C\c1ccc(-c2ccc(Cl)cc2)o1	-0.5%
CCOC(=O)c1ccc(N2C(=O)c3n[nH]c(-c4cccs4)c3C2c2cccc(OC)c2)cc1 (stereo not drawn)	?
COc1cccc(CNS(=O)(=O)c2ccc3c(c2)C(C(C)C)C(=O)N3)c1 (stereo not drawn)	-0.8%
O=C(CSc1nc(=O)[nH]c2c1CCC2)NCc1ccc(Cl)cc1	0.6%
CCc1cccc(NC(=O)c2c(C)oc3ncnc(N4CCCCC4)c23)c1	12.9%
CCOc1ccc2ncc3c(-c4ccccc4)nn(CC(=O)Nc4cccc(F)c4)c3c2c1	-1.6%
COc1ccc(C(=O)N2CCC(c3nc4ccccc4o3)CC2)cc1	7.1%
COc1ccc(NC(=O)c2c(-c3ccc(C)cc3)nnc3ccccc23)cc1Cl	-17.8%
COc1ccccc1C(=O)N(c1ccc(C)cc1)S(=O)(=O)c1ccc(Cl)cc1	?
Cc1ccc(-c2nonc2NC(=O)c2ccc(F)cc2)cc1C	-1.0%
COc1ccc(Cl)cc1NC(=O)CCS(=O)(=O)c1nc(-c2cccs2)cc(C(F)(F)F)n1	?
COc1ccc(C2C=C(c3ccccc3)Nc3nc(NC(=O)c4cccc([N+](=O)[O-])c4)nn32)cc1 (stereo not drawn)	0.2%
(next part)
SMILES	miR-21 FLuc
O=C(COc1ccccc1)Nc1nnc2n1CCS2	-6.7%
Cc1ccc(C)c(NC(=O)c2cc(S(=O)(=O)N3CCc4ccccc4C3)ccc2F)c1	-1.3%
Cc1ccc(Cl)cc1N1CCN(CCCNC(=O)c2ccc3nc(N4CCCCC4)sc3c2)CC1	-47.7%
CC(=O)c1ccc(S(=O)(=O)N2CCn3cccc3C2c2ccc(C)cc2)cc1 (stereo not drawn)	0.8%
Cc1cc(NC(=O)CCn2c(=O)c3cccn3c3cccnc32)ccc1Br	-3.0%
O=C(NCCn1cc(SCc2cccc(F)c2)c2ccccc21)c1cccc(C(F)(F)F)c1	-12.2%
O=C(Nc1cc(-c2ccc(F)c(F)c2)no1)c1ccccc1F	-1.3%
CN(Cc1ccccc1)C(=O)CSc1nc(-c2ccc(F)cc2)cc(C(F)(F)F)n1	9.2%
COc1ccc(S(=O)(=O)NCCc2nnc3ccc(SCC(=O)Nc4cc(C)cc(C)c4)nn23)cc1	-2.6%
COCCNc1nc2c(S(=O)(=O)c3ccc(C)c(C)c3)nnn2c2ccc(Cl)cc12	-0.1%
